# Bioassay records deposited in PubChem by several laboratories.
# Rce1 inh: blocks yeast Ras-converting enzyme; calls only; 290,000 compounds, 0.27% hits; Q03530; yeast membranes, quenched prenylated peptide cleavage fluorescence; AID 2563;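 active = fall in fluorescence gain of 50% or more versus controls, with final raw signal at or below 3038400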;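 note: plate controls were neutral control wells for no effect and wells lacking membranes for full effect; tested at 10 µM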
# Target sequence (Q03530 whole entry, looked up): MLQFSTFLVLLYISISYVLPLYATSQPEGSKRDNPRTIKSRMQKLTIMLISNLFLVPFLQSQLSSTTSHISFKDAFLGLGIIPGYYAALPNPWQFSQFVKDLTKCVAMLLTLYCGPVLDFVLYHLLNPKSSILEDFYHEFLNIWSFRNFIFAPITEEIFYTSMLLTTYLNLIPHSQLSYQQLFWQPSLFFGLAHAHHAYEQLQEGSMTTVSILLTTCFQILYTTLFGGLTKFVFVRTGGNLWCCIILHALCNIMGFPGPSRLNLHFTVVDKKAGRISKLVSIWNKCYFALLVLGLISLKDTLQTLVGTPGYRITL
# Yeast UUG start: alters start codon recognition fidelity in yeast; 350,000 compounds, 0.13% hits; activity score, % at 18.7 µM; S. cerevisiae UUG-firefly luciferase reporter, luminescence/redox ratio;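 active = replicate mean at a twofold rise or more, about +100% in these data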;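 note: firefly luciferase made from a UUG start codon reports start codon fidelity; reporter light over untreated wells divided by growth signal over untreated wells; some hits fall short of that in this replicate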
# PABP FP inh: blocks human PABP binding to poly(A) RNA; P11940; fluorescence polarization; inhibition, % at 35 µM; 290,000 compounds, 1% hits; AID 2014;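 active = 50% or more with normal probe brightness, or confirmed in later tests; about a fifth of its hits are not listed in these tables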;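 note: calls also rest on retests at 20 µM and on dose response follow-up; controls were probe without protein and protein plus probe with vehicle; some compounds called inactive have numbers as strong as hits; many hits fall short of the cut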
# Target sequence (P11940 whole entry, looked up): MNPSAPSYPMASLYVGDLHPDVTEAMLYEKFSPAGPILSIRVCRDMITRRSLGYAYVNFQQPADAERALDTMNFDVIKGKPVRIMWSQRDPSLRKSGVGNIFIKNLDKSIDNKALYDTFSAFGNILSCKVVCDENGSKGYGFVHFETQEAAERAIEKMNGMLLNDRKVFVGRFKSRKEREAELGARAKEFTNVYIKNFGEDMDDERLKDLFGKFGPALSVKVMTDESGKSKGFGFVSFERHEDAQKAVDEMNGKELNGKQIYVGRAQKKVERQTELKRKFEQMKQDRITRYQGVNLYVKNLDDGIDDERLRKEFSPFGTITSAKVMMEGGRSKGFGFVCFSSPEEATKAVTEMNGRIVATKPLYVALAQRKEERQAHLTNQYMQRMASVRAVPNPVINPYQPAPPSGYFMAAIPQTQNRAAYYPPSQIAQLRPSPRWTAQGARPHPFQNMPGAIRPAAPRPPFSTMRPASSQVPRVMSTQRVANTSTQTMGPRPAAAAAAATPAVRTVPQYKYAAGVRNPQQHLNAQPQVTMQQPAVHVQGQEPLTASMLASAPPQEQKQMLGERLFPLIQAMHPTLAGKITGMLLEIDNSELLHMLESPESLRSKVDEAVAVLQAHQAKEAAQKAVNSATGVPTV
# CSC inhib: blocks cancer stem cells; 300,000 compounds, 1.1% hits; cancer stem cell-like cells viability, luminescence; inhibition, % at 7.5 µM;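 active = mean at 75% or more and at least half the replicates too; tested in HMLE shEcad cells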;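 note: 0% = median of negative and 100% = median of positive control wells; the first replicate is given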
# HIV Env fusion: inhibitors of HIV Env-mediated cell fusion; inhibition, % at 12.3 µM; 360,000 compounds, 1.1% hits; HeLa-JRFL Env/CEM21 cell fusion, luciferase;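 active = mean replicate inhibition score of at least 50 and every replicate individually at or above 50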;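 note: 0% = plate neutral controls and 100% = maraviroc near 300 nM; one replicate is shown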
# MT1-MMP act inh: inhibitors of human MT1-MMP activation; AID 651647; GFP/RFP ratio change, % at 20 µM; HT1080 RFP-PRO-GFP cells, GFP/RFP ratio fluorescence, overnight; percent of plate control window, DMSO zero; 360,000 compounds, 0.061% hits;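 active = GFP/RFP ratio change of at least 30% with cell ATP level not reduced by more than half and red fluorescence within 50% of control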; note: strong numbers were not always called active
#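 Assay system – RFP-PRO-GFP reporter HT1080 cells · Compound dosing – single dose of 20 µM compound, 1% DMSO final · Incubation – overnight compound exposure at 37 °C · Measure – GFP/RFP fluorescence ratio · Benchmarks – DMSO wells and RFP-L50D-GFP cells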
# eIF4H inh: inhibitors of RNA binding by human eIF4H | Q15056 | eIF4H fluorescence polarization binding assay | inhibition, % at 35 µM | 290,000 compounds, 0.94% hits;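 active = 50% or more with normal probe brightness, or confirmed in later tests; about a fifth of its hits are not listed in these tables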;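 note: calls also rest on retests at 20 µM and on dose response follow-up; 0% = protein and probe with vehicle and 100% = probe without protein; strong numbers were not always called active; many hits fall short of the cut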
# MT1-MMP act inh RFP: further read-out of MT1-MMP act inh, marked with its call; RFP signal change, %; measured here: RFP expression control read;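 0 = vehicle wells; hits needed this value within 50% of zero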
# The depositor's hits bear a star; i = inactive; / = not tested or not shown. This is a subset (hit frequency here may not be typical).
nr	SMILES	Rce1 inh	Yeast UUG start	PABP FP inh	CSC inhib	HIV Env fusion	MT1-MMP act inh	MT1-MMP act inh RFP	eIF4H inh
1	CCOC(=O)c1cc(C)nc(S(C)(=O)=O)c1C#N	i	/	-11.4	/	17.1	-2.5	-1.0	-3.6
2	COC(=O)CC(NC(=O)CN1CCN(c2ccc(F)cc2)CC1)c1cccc(F)c1 (configuration not stated)	i	-12.9	-9.2	3.4	3.9	2.8	0.9	-7.0
3	COc1ccc(OCCN(C)CC(=O)Nc2ccccc2SC)cc1	i	-6.5	0.9	8.3	5.4	3.6	5.3	-6.3
4	Cc1ccc(S(=O)(=O)N2CCN(C(=O)c3cc(=O)c4ccccc4o3)CC2)cc1	i	/	-14.6	16.9	3.7	-5.1	-7.4	-2.1
5	Cc1cc(N(C(=O)c2ccco2)C(C(=O)NC2CCCCC2)c2ccccc2)ccc1-n1cnnn1 (configuration not stated)	i	-15.1	-5.4	-8.6	23.3	5.8	3.9	-5.4
6	CCN(/N=C/c1ccccc1)c1cc(=O)n(C)c(=O)[nH]1	i	-22.1	-1.9	-3.9	0.0	1.9	2.7	-1.2
7	CC(=O)CCC(=O)CNC(=O)CC[C@H]1O[C@@H](n2ccc(=O)[nH]c2=O)[C@H](O)[C@@H]1O	/	-17.5	/	/	-11.7	-0.9	2.7	/
8	O=C1CN(C(=O)N[C@@H](Cc2ccccc2)C(=O)N[C@H](C(=O)O)c2ccccc2)c2ccccc2N1	i	-7.0	1.9	-13.6	-5.8	1.4	2.9	-9.8
9	CCc1ccccc1NC(=O)CSc1nnc([C@H](CCSC)NC(=O)OC(C)(C)C)o1	i	-15.2	-6.8	-9.6	/	0.3	1.4	-8.5
10	c1ccc(-c2[nH]ncc2CN2CCc3ccccc3C2)cc1	i	/	3.3	-19.5	3.7	-1.1	-1.3	3.2
11	COc1ccc(CCn2c(N)cc(=O)[nH]c2=O)cc1OC	/	/	13.5	12.7	8.4	3.5	-1.4	2.7
12	COC(C(=O)NC1CC1)c1ccccc1 (configuration not stated)	i	/	6.3	-7.0	12.9	2.6	2.6	13.1
13	CCCOc1ccc(C2=CC(=O)C[C@H](c3ccc(OC)cc3)C2)cc1	/	-15.2	/	18.3	-11.0	5.5	-1.2	/
14	COc1ccc([C@@H]2[C@@H]3C(=O)N(C(C)(C)C)C(=O)[C@@H]3[C@]3(Cc4ccc(Cl)cc4)C(=O)N(c4cccc(Br)c4)C(=O)N23)cc1	i	-5.7	8.6	-11.8	78.5*	2.6	-5.1	-15.3
15	O=C(CSc1nnc2c(n1)[nH]c1ccccc12)NCc1ccco1	i	/	-14.2	2.8	-7.7	3.4	-3.3	26.4
16	COc1ccc(NC(=O)COC(=O)c2ccc(S(=O)(=O)N3CCCCCC3)cc2)c(OC)c1	/	-11.2	/	/	0.3	-1.2	3.6	/
17	CC(=O)Nc1ccc(NS(=O)(=O)c2cc(Cl)sc2Cl)cc1	i	-5.4	-3.2	/	7.1	2.1	-3.4	-10.8
18	Cc1ccc(CN2CCN(CC(=O)NCc3ccccc3)CC2)cc1	i	6.4	-11.9	/	12.8	4.3	3.5	1.4
19	Cc1cccc(Nc2sc(C(=O)c3cc4cc(Cl)ccc4o3)c(N)c2C#N)c1	i	-9.8	2.1	-10.6	8.0	-5.1	5.5	6.0
20	Cc1cc(C)c2nc(N3CCC(C(=O)NCC4CCCO4)CC3)sc2c1 (configuration not stated)	i	-5.1	0.8	-18.8	1.9	7.2	-0.1	4.0
21	CCCn1cnc2c(sc3nc4c(cc32)CSC(C)(C)C4)c1=O	i	-2.0	4.0	65.1	/	3.4	-0.3	1.2
22	O=C(O)CC(c1ccccc1)n1cnnn1 (configuration not stated)	i	-11.7	5.2	7.0	/	-1.3	3.3	-6.9
23	Cc1ccsc1/C=N/NC(=O)c1cccs1	i	/	-6.0	-10.0	/	5.6	2.5	1.7
24	Cc1ccc(N2CCN(C(=O)c3cc(C(=O)c4ccccc4C)c[nH]3)CC2)c(C)c1	i	/	-2.0	11.6	29.7	-5.5	-19.2	-1.3
25	CCOC(=O)c1ccc(NC(=O)Cn2ccc([N+](=O)[O-])n2)cc1	i	-7.4	11.3	-0.8	-13.2	1.3	0.2	-1.6
26	CCn1nc(C)c(CNC(=O)C2CCC(=O)N(CCc3ccc(Cl)cc3)C2)c1C (configuration not stated)	i	-20.2	3.8	20.2	-4.0	-0.5	0.3	-9.2
27	N#C/C(=C\c1cccs1)Sc1nc2ccccc2s1	i	/	-9.3	11.2	/	-1.9	2.2	-7.4
28	CCOc1ccc(N(C)C(=O)CCc2nnc3ccc(N4CCC5(CC4)OCCO5)nn23)cc1	i	-10.8	5.4	-2.5	7.9	/	/	-0.1
29	COc1ccc(CN2CCN(C(=O)c3cccc4ccccc34)CC2)cc1OC	i	-3.0	6.0	-4.6	-3.0	0.2	-2.0	11.2
30	COc1ccc(S(=O)(=O)N2CCCCC2C(=O)O)cc1OC (configuration not stated)	i	-0.5	5.5	-9.0	-121.6	5.7	-0.3	2.2
31	CCc1nc(N2CCN(C(=O)c3ccco3)CC2)c2oc3ccccc3c2n1	i	/	1.8	/	-39.2	-6.1	-2.6	-4.9
32	Cn1c(SCC(=O)NC(=O)c2cccc([N+](=O)[O-])c2)nnc1-c1ccc(F)cc1	i	/	-2.5	-13.7	-0.4	2.4	3.0	-2.9
33	COc1ccc(Cl)cc1C(=O)NNC(=O)c1ccncc1	i	-11.2	1.2	-11.1	-11.3	2.2	4.6	15.5
34	O=C(NO)c1cc(OCC(F)(F)F)ccc1OCC(F)(F)F	i	-11.8	-3.2	-3.3	1.0	5.0	8.1	-9.4
35	O=C(CSc1nccc(=O)[nH]1)Nc1ccc2c(c1)OCCO2	i	/	-7.1	-4.1	-22.1	4.1	5.3	-6.5
36	CC1CC(C)CN(S(=O)(=O)c2ccc(C(=O)N3CCN(c4ccccc4)CC3)cc2)C1 (configuration not stated)	i	/	-0.8	-9.5	/	-13.0	-15.2	8.4
37	COc1ccccc1NC(=O)CCC(=O)OCc1ccc(Cl)cc1	i	20.8	-9.5	/	12.7	4.6	9.8	3.0
38	O=C(CCc1ccccc1)NC1(Cc2ccccc2)CCN(CCCc2ccccc2)C1=O (configuration not stated)	/	-4.3	/	-3.6	5.6	-3.3	-18.2	/
39	O=C(O)C(NC(=O)c1ccccc1)=C(Cl)Cl	i	-20.0	/	8.8	-34.4	2.4	1.7	/
40	Cc1cc(/C=C2\SC(N)=NC2=O)c(C)n1-c1ccc(F)cc1	i	/	-2.3	-0.7	-4.6	-4.4	0.3	8.7
41	COc1ccc(C(=O)N2CCC3(CC2)NCCc2[nH]cnc23)cc1	i	-8.1	/	-11.3	4.7	-0.1	1.5	/
42	Cc1c(CN2CCc3c([nH]c4ccccc34)C2C2CCCCC2)cnn1C (configuration not stated)	i	/	7.3	-0.9	-18.2	-8.8	-1.2	0.5
43	O=C(NCCOc1ccccc1)c1ccccc1Cl	i	-38.3	-7.2	-10.8	-3.1	-0.2	-0.7	-12.6
44	O=C(COC(=O)C1(c2ccc(F)cc2)CCCC1)NCc1ccco1	i	/	12.0	12.0	-3.8	-1.4	-2.5	16.2
45	O=C(CCc1nnc2n(CCc3ccccc3)c(=O)c3ccccc3n12)NCCCN1CCCCC1	i	-7.3	2.2	-2.3	2.7	4.3	-0.4	14.7
46	CCN(CC)C(=O)CN1C(=O)C2(OCC(C)(c3ccccc3)CO2)c2ccccc21 (configuration not stated)	i	-0.7	-3.8	-4.3	18.9	4.7	-1.2	-2.4
47	C=CCOc1cccc(C2C(C(=O)c3ccco3)=C(O)C(=O)N2Cc2cccnc2)c1 (configuration not stated)	i	-16.5	10.5	-2.3	3.1	2.0	2.3	-3.0
48	COc1cc(OC)nc(N/N=C(\c2ccccc2)c2ccncc2)n1	i	-14.7	-1.5	-4.3	-22.0	-3.1	-3.0	2.9

# Of the compounds above, 2 contain a nitro group on carbon.
nr	SMILES	Rce1 inh	Yeast UUG start	PABP FP inh	CSC inhib	HIV Env fusion	MT1-MMP act inh	MT1-MMP act inh RFP	eIF4H inh
25	CCOC(=O)c1ccc(NC(=O)Cn2ccc([N+](=O)[O-])n2)cc1	i	-7.4	11.3	-0.8	-13.2	1.3	0.2	-1.6
32	Cn1c(SCC(=O)NC(=O)c2cccc([N+](=O)[O-])c2)nnc1-c1ccc(F)cc1	i	/	-2.5	-13.7	-0.4	2.4	3.0	-2.9

# Following part:
nr	SMILES	Rce1 inh	Yeast UUG start	PABP FP inh	CSC inhib	HIV Env fusion	MT1-MMP act inh	MT1-MMP act inh RFP	eIF4H inh
49	Cc1ccc(NC2CCCN(C(=O)c3cccnc3)C2)cc1C (configuration not stated)	i	-6.4	0.5	-9.9	/	-1.9	3.5	-4.9
50	CC1CCCN(CCCNC(=O)C2CCCN(c3ncnc4c3nc3n4CCCCC3)C2)C1 (configuration not stated)	i	-16.8	1.1	-8.6	-3.7	3.1	0.0	-1.1
51	CCNC(=S)NC1CC2CCC(C1)N2Cc1ccccc1 (configuration not stated)	i	-16.1	0.2	14.9	-1.3	5.4	-0.6	0.7
52	C#CCOCCOCCOCCNc1nc(N2CCN(C(=O)Cn3cc(CC(C)O)nn3)CC2)nc(N2CCN(C(=O)[C@H]([C@@H](C)O)n3cc(CCCCN)nn3)CC2)n1 (some centres not stated)	/	24.5	/	/	4.4	7.4	7.9	/
53	O=C(C1CCC1)N1CCN(S(=O)(=O)c2cccc(F)c2)CC1	i	-9.0	/	-10.0	/	1.1	5.2	/
54	COc1ccc(OC)c(S(=O)(=O)Nc2ccccc2C)c1	i	-2.0	-18.9	2.4	/	8.2	5.0	-13.4
55	CN(Cc1nc(Cc2ccccc2F)no1)Cc1cccc2ncccc12	i	-14.7	5.2	-18.5	45.7	-3.3	-17.3	-7.3
56	CCOCCn1c(=NC(=O)c2ccc(S(=O)(=O)N3CCOCC3)cc2)sc2cc(S(N)(=O)=O)ccc21	i	-13.7	8.6	-14.6	/	3.2	-13.0	1.0
57	CCCCCCCNC(=O)C1(CC2CC(c3ccc(Cl)cc3)=NO2)CCN(C(=O)Cc2ccc(F)cc2)CC1 (configuration not stated)	i	-15.1	-3.4	7.9	38.2	-38.0	-27.4	-11.3
58	Cc1ccc(C(=O)N/C(=C\c2ccc(C(C)C)cc2)C(=O)NCCCN2CCOCC2)cc1	i	19.1	-4.5	-7.7	-6.1	3.3	1.4	-2.9
59	CC(=O)Nc1ccc(S(=O)(=O)Nc2ccn(Cc3ccccc3Cl)n2)cc1	i	-12.0	3.7	/	12.1	1.9	0.2	-1.5
60	CCCCN(C(=O)Cn1nnc2ccccc21)C(C(=O)NCCOC)c1ccccc1 (configuration not stated)	i	-11.5	8.6	-4.9	-30.7	3.7	3.0	-0.9
61	Cc1cc(Cl)ccc1N=c1ssnc1Cl	i	-40.2	6.0	-12.5	/	-3.8	-8.7	-0.2
62	CCc1ccc(NC(=O)CSc2nccn(-c3ccc4c(c3)OCCO4)c2=O)cc1	i	1.6	/	/	-1.6	-5.0	0.9	/
63	c1ccc(-c2noc(CSc3nnnn3C3CCCCC3)n2)cc1	i	3.6	-4.6	-21.7	-2.0	2.9	3.4	5.7
64	COc1cc2[nH]c(=O)c(C(=O)NCc3ccccc3Cl)c(O)c2cc1OC	i	-4.7	-9.9	/	-13.5	-0.2	-1.1	2.8
65	CCN1CCN(c2c(Cl)cccc2NC(=O)c2cc3ccccc3o2)CC1	i	-9.7	-1.1	8.3	-28.8	-0.8	-4.8	1.3
66	CCN(CC)C(=O)[C@H]1C[C@H](CC(=O)NCCCN(C)C)C(=O)N2CCc3c([nH]c4ccc(Cl)cc34)[C@]12C	/	-7.5	/	/	-10.4	3.3	8.2	/
67	COc1ccc(C(=O)NC(=S)NNC(=O)c2cccc(C)c2)cc1	i	/	/	24.1	-4.4	/	/	/
